# Source: PubChem BioAssay
# CDC25B CDK2 inh = human CDC25B-CDK2/CyclinA binding inhibition. P30305+P24941. HTRF CDC25B-CDK2/CyclinA binding, anti-His/anti-Flag; stronger effect = higher value. z-score (test concentration not listed). 94,000 compounds, 0.72% hits;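 also: score is relative to mean and SD of negative controls; strong numbers were not always called active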
# TAR Tat displ = HIV-1 TAR-Tat binding disruption | HIV-1 TAR RNA, Tat peptide displacement FRET; stronger effect = higher value | z-score (concentration not given with the values) | 100,000 compounds, 0.6% hits | AID 1259389;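 also: score is relative to mean and SD of negative controls; some compounds called inactive have numbers as strong as hits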
# Starred values were filed as active, the others as inactive; / = no result given.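 The calls were made as follows: active = z-score from 3 up in half or more of its runs; inactive = the rest.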
SMILES,CDC25B CDK2 inh,TAR Tat displ
Cc1ccc(C2CC(=O)Nc3c2c(C)nn3-c2nncc(-c3ccc(Cl)cc3)n2)cc1 (configuration not stated),-0.87,2.91
CCCCOC(=O)n1c(=O)oc2ccccc21,-0.52,0.47
CC(C)(C)c1ccc(CN(C(=O)c2cc(=O)c3cc(Cl)ccc3o2)C2CCS(=O)(=O)C2)cc1 (configuration not stated),-2,3.7
Cc1cccc(C(=O)N2c3ccc([N+](=O)[O-])cc3-c3c(ssc3=S)C2(C)C)c1,-0.95,/
N#Cc1ccc(-c2ccco2)[nH]c1=O,-0.75,/
O=C(CCCC(=O)OCC(F)(F)C(F)F)Nc1ccc(OC(=O)CCCC(=O)OCC(F)(F)C(F)F)cc1,-1.91,/
COc1ccc(Cl)cc1N1C(=O)C2CCCN2C1c1ccccc1 (configuration not stated),-1.71,-1.53
COc1cccc(-c2nn3c(Cc4ccccc4)nnc3s2)c1,-0.95,0.55
CN(C(=O)c1cc(S(=O)(=O)N2CCCC2)cn1C)c1ccc(Br)cc1,/,0.95
FC(F)(F)C(=C(N=C(Cl)SOCc1ccccc1)C(F)(F)C(F)(F)F)C(F)(F)F,3.15,/
CCc1ccc(S(=O)(=O)c2nnn3c2nc(N2CCCC2)c2ccccc23)cc1,0.73,1.29
O=C(Nc1nccs1)C1CCC(CNc2c(N3CCOCC3)c(=O)c2=O)CC1 (configuration not stated),1.5,1.4
O=C(CCCCCCSc1ccc2ccccc2c1)NO,/,0.4
Cc1cccc2c1N(C(C)C)C(=O)C2=O,-1.12,0.04
O=C(Oc1cc(Cl)cc(Cl)c1)c1cnc2n(c1=O)CCS2,-0.84,/
O=C(c1cc(-c2ccccc2)on1)N(Cc1ccc(Cl)cc1)C1CCS(=O)(=O)C1 (configuration not stated),-0.54,1.34
Clc1ccc(-n2ncc3c2ncn2nc(Cc4ccccc4)nc32)cc1,-5.99,0.24
CCOC(=O)C1=C(C)NC2=C(C(=O)C(C(=O)OCC)C(c3ccc(OC)cc3)C2)C1c1cccs1 (configuration not stated),0.98,2.13
Cc1cccc(NS(=O)(=O)c2ccc(N3CCCCS3(=O)=O)cc2)c1C,/,-1.13
Cc1cc(-c2ccccc2)nc(SCc2ccc(C(=O)O)o2)n1,-0.58,0.81
Nc1nc(-c2ccccc2)ns1,-1.14,/
COc1ccc(OC)c(NC(=O)C2CCCNC2=O)c1 (configuration not stated),-0.41,/
O=C(Cn1ncc2ccccc21)NC1CCCc2ccccc21 (configuration not stated),-2.08,0.66
COc1cccc(N2C(=O)c3cccnc3C2Nc2ccccc2Cl)c1 (configuration not stated),/,1.61
CC(=O)C(Sc1ccc2nnc(-c3ccc(F)cc3)n2n1)C(C)=O,-1.8,/
Cc1nc(-c2ccc(C)c(S(=O)(=O)NC3CCCC3)c2)cs1,/,1.25
CCCCCCCC/C=C\CCCCCCCC(=O)NCCc1ccc(O)c(O)c1,-0.97,/
O=C(O)Cn1ncc2c1-c1ccoc1CC2,11.3*,0.9
O=C1CNC(=S)N1CCc1ccncc1,-1.7,/
CCS(=O)(=O)N1CCCc2ccc(NS(=O)(=O)c3ccc(-c4ccccc4)cc3)cc21,/,0.93
O=C(Nc1nnc(CSCc2ccccc2)s1)c1cccs1,-0.76,/
c1nnnn1CC1CCOCO1 (configuration not stated),-1.96,/
COc1ccc(Cl)cc1NC(=O)NCC1CCN(C(=O)OC(C)(C)C)CC1,-0.61,/
CCCOc1ccc(C2c3c(oc4ccc(F)cc4c3=O)C(=O)N2c2nc(C)c(C)s2)cc1 (configuration not stated),-1.62,2.02
Cc1ccc(S(=O)(=O)N2N=C3CCCCCC3C2(O)C(F)(F)F)cc1 (configuration not stated),0.01,/
COc1ccc(OC)c(NC(=O)CC2=NS(=O)(=O)c3ccccc3N2)c1,/,0.64
CSc1cccc(NC(=O)c2cc(-c3cccnc3)nc3ccccc23)c1,/,0.76
C[N+]1(C)C2CC[C@H]1CC(OC(=O)C(O)c1ccccc1)C2 (some centres not stated),/,-0.81
Cc1ccc(NS(=O)(=O)c2ccc3c(c2)n(C)c(=O)n3C)c(C)c1,-1.57,3.3
Cc1nc2sccn2c(=O)c1S(=O)(=O)NCc1cccnc1,1.19,-1.46

# Another view of part of the listing above:
# Fields – CDC25B CDK2 inh	TAR Tat displ
> O=C(Nc1nnc(CSCc2ccccc2)s1)c1cccs1
    -0.76	/
> c1nnnn1CC1CCOCO1 (configuration not stated)
    -1.96	/
> COc1ccc(Cl)cc1NC(=O)NCC1CCN(C(=O)OC(C)(C)C)CC1
    -0.61	/

# Further compounds follow:
SMILES,CDC25B CDK2 inh,TAR Tat displ
CC(C)(C)c1ccc(OCc2nn3c(C4COc5ccccc5O4)nnc3s2)cc1 (configuration not stated),-0.76,0.96
CC1Cc2cc(S(=O)(=O)N3CCC(C(=O)NCc4ccco4)CC3)ccc2N1C(=O)C1CCC1 (configuration not stated),/,-1.37
CCOc1cc(-c2ccc(OC(=O)c3ccco3)c(OC)c2)cc(=O)c2c(C)oc(C)c12,-1.77,-0.57
CCOC(=O)c1cnn(C)c1NS(=O)(=O)c1ccc(Cl)cc1,-1.04,/
CCOC(=O)c1cccc(Cn2nnc3sc4c(c3c2=O)CCCC4)c1,-1.8,-0.06
COc1ccc(C2=NS(=O)(=O)N(C)C(C(=O)N(C)C3CCCCC3)=C2)cc1,-1.87,0.34
Cc1cc(C)n2nc(CNc3cccc(Cl)c3)nc2n1,-1.54,0.89
O=C(c1cccs1)N1CCN=C1SCc1cccnc1,0.14,/
O=C(C1CCCN(c2nnc(-n3cccc3)s2)C1)N1CCc2ccccc2C1 (configuration not stated),/,0.64
COc1ccc(-c2csc3nc(-c4ccccc4OC)oc(=O)c23)cc1,-1.69,/
Cc1cc(-c2ccc(C)c(S(=O)(=O)NCc3ccc(F)cc3)c2)on1,/,0.42
O=S(=O)(c1ccccc1)c1cnc2ccc(F)cc2c1Nc1ccccc1,-1.72,1.96
CC(NC(=O)c1ccco1)c1nc(-c2ccc3c(c2)nnn3C)no1 (configuration not stated),/,-0.18
CCOC(=O)c1c(NC(=O)CSc2nc(C)nc3c2CCC3)sc2c1CCC(C)C2 (configuration not stated),-0.79,1.02
COc1ccc2c(c1)CCC(C(C)=O)C2=O (configuration not stated),0.82,/
Cc1ccc(Nc2cc(=O)[nH]c(=O)[nH]2)cc1C,-0.63,/
Cc1cc2n(n1)CCCN2C(=O)CCC(=O)NC1CC1,0.07,3.83
O=C(Nc1cccnc1)C1CC(c2ccc(Cl)cc2)=NO1 (configuration not stated),-1.77,0.65
O=C(Nc1cccc(-c2nc3ccccc3s2)c1)c1cc2ccccc2oc1=O,-2.5,/
C=CCSc1nc2ncccc2[nH]1,/,0.85

# In the list so far, 13 have four or more nitrogen atoms:
SMILES,CDC25B CDK2 inh,TAR Tat displ
Cc1ccc(C2CC(=O)Nc3c2c(C)nn3-c2nncc(-c3ccc(Cl)cc3)n2)cc1 (configuration not stated),-0.87,2.91
COc1cccc(-c2nn3c(Cc4ccccc4)nnc3s2)c1,-0.95,0.55
CCc1ccc(S(=O)(=O)c2nnn3c2nc(N2CCCC2)c2ccccc23)cc1,0.73,1.29
O=C(Nc1nccs1)C1CCC(CNc2c(N3CCOCC3)c(=O)c2=O)CC1 (configuration not stated),1.5,1.4
Clc1ccc(-n2ncc3c2ncn2nc(Cc4ccccc4)nc32)cc1,-5.99,0.24
CC(=O)C(Sc1ccc2nnc(-c3ccc(F)cc3)n2n1)C(C)=O,-1.8,/
c1nnnn1CC1CCOCO1 (configuration not stated),-1.96,/
Cc1nc2sccn2c(=O)c1S(=O)(=O)NCc1cccnc1,1.19,-1.46
CC(C)(C)c1ccc(OCc2nn3c(C4COc5ccccc5O4)nnc3s2)cc1 (configuration not stated),-0.76,0.96
Cc1cc(C)n2nc(CNc3cccc(Cl)c3)nc2n1,-1.54,0.89
O=C(C1CCCN(c2nnc(-n3cccc3)s2)C1)N1CCc2ccccc2C1 (configuration not stated),/,0.64
CC(NC(=O)c1ccco1)c1nc(-c2ccc3c(c2)nnn3C)no1 (configuration not stated),/,-0.18
Cc1cc2n(n1)CCCN2C(=O)CCC(=O)NC1CC1,0.07,3.83

# More records follow.
SMILES,CDC25B CDK2 inh,TAR Tat displ
O=[N+]([O-])c1ccc2c(c1)CCN2C(=S)Nc1ccccc1Cl,-1.47,/
CC(C)OCc1cc(CN2CCCCC2)c(O)c2ncccc12,-2.07,0.4
Cn1ncc2c(Nc3ccc(F)cc3)nc(NCc3ccccc3Cl)nc21,/,-0.57
Cc1cc(C)c2c(n1)sc1c(=O)n(CC(N)=O)cnc12,/,0.51
Cc1ccc2c(c1)NC(CCC(=O)NCc1ccc3c(c1)OCO3)=NS2(=O)=O,/,0.33
O=[N+]([O-])c1ccc(N2CCc3ccccc32)cc1,0.03,/
COC(=O)c1c(C)n(S(=O)(=O)c2cccs2)c2ccc(NS(=O)(=O)c3cccs3)cc12,0.17,-0.9
COc1cc(Cl)c(C)cc1N1Cc2ccncc2C1=O,/,0.32
CC(C)N1C(=O)C(O)(CC(=O)c2cccnc2)c2ccccc21 (configuration not stated),-1.74,0.92
CSc1ncc(-c2n[nH]c(=S)n2C)n1C,-2.06,/
CCC(C)NC(=O)NC1(C(F)(F)F)Oc2ccccc2O1 (configuration not stated),1.86,/
CCOC(=O)c1sc(COc2cccc(Cl)c2)nc1C,-2.23,/
Clc1ccc(Cn2c(-c3ccco3)nc3ccccc32)cc1,-2.93,1.08
CCCNC(=O)N1c2ccccc2NC2=C(C(=O)CC(C)(C)C2)C1c1ccccc1 (configuration not stated),/,0.48
CN(C(=O)CSc1nc(-c2ccccc2)no1)C1CCCCC1,/,1.46
O=c1n(-c2ccccc2)c(=O)n2n1C1c3ccccc3C2c2ccccc21,-0.97,0.33
O=C(c1[nH]nc2c1COc1ccccc1-2)N1CCN(c2ccc(F)cc2)CC1,/,-0.27
Cc1nc(N2CCN(c3ccccn3)CC2)c2c(C)c(C(=O)N3CCCC3)sc2n1,-0.72,/
Cc1ccc(Cn2c(C(=O)O)cc3sccc32)cc1,-2.4,/
Cn1c(=O)oc2cc(S(=O)(=O)N3CCCC(C(=O)N4CCn5c4nc4ccccc45)C3)ccc21 (configuration not stated),-0.63,/
Cc1cccc(-c2nc3c4c(C)c(C)n(Cc5ccncc5)c4ncn3n2)c1,-2.84,0.13
CCCCN[C@H]1CS(=O)(=O)C[C@@H]1S(=O)(=O)c1ccc(OCC)cc1,-1.9,-0.18
CCCNC(=O)N1CCC(N2CCN(CCOC)C(=O)C2=O)CC1,/,-1
CCCCNc1nc2c(-c3cccc(F)c3)nnn2c2ccccc12,-1.8,-0.63
CCCC12CN3CC(CCC)(CN(C1)C3c1ccc(C)cc1)C2=O (configuration not stated),-0.43,/
O=C(Nc1ccc(Cl)cc1)Nc1nc(-c2ccccc2)cs1,-3.6,/
CCCCCCCCCCCC1=NCCN1CCO,0.87,/
NC(=O)c1sccc1Br,-3.13,/
CCOC(=O)c1nnn(-c2nonc2N)c1CN(C)C,-1.09,2.85
COc1ccc(OC)c(NC(=O)C2(c3cccs3)CCOCC2)c1,/,0.48
Cc1[nH]c2ccccc2c1C(=O)COc1ccccc1,-0.83,0.6
Cc1ccc2onc(CNC(=O)Nc3ccc(Cl)cn3)c2c1,/,-0.72
Cc1ccc2nc3sc(C(=O)NCCN(Cc4ccco4)C4CCCC4)cc3cc2c1,/,0.03
O=C(CSc1nc2c(sc(=S)n2Cc2ccco2)c(=O)n1-c1ccccc1)N1CCCC1,/,1.06
O=S(=O)(c1ccc(F)cc1)N1CCN(Cc2ccc3c(c2)OCO3)CC1,15.8*,0.6
Cc1nc2c3ccccc3n3c(CCCC(=O)N4CCN(C(=O)c5ccco5)CC4)nnc3n2n1,0.41,/
COc1ccc(C2CC(c3cccs3)n3nc(N)nc3N2)cc1 (configuration not stated),0.58,/
CCC1CN(C(=O)Nc2ccc(Cl)cc2)c2ccccc2S1 (configuration not stated),/,2.47
CCN(CC)S(=O)(=O)c1ccc2c(c1)N(CC(=O)NC)C(=O)CO2,1.44,/
C=CCn1c(N2CCN(c3ccc(OC)cc3)CC2)nc2c1c(=O)[nH]c(=O)n2C,-1.57,/
Cc1nn2c3c(cnc2c1-c1ccc(Cl)cc1)C(=O)CC(C)C3 (configuration not stated),-1.58,1.21
Cc1nc(-c2csc(S(=O)(=O)Nc3ccc(Cl)cn3)c2)no1,/,2.06
CCc1nnc(SCC(=O)Nc2ccc(OC)cc2OC)c2cc3sccc3n12,/,3.02
CCCCNC(=O)Nc1ccccc1Oc1ccccc1,-0.84,/
CCn1c(NCc2cccc(Cl)c2)nc2ccccc21,1.13,1.71
CC1CCCC(C)N1CCCNC(=O)C1CCCN(c2nnc(-n3cccc3)s2)C1 (configuration not stated),0.07,0.76
CCOC(=O)C(C)Sc1n[nH]c(=O)[nH]c1=O (configuration not stated),-1.35,-1.99
O=C(O)c1cc2n(n1)C(C(F)(F)F)CC(c1ccc(Cl)cc1)N2 (configuration not stated),-1.97,0.24
COc1ccccc1OCc1nnnn1-c1ccc(Br)cc1,-0.63,0.32
Cc1nc(NC(C)C)cc(-c2ccccc2)n1,-0.67,13.4
O=S(=O)(c1ccc(-n2cnnn2)cc1)N1CCN(c2ccccc2F)CC1,-0.3,2.04
CN(C)CCn1c2c(c(SCC(=O)Nc3ccc(Br)cc3)nc1=O)CCC2,/,1.66
O=C1C2C3C=CC(O3)C2C(=O)N1c1ccccc1Cl (configuration not stated),-0.1,/
COc1ccc(C2CC(=O)C3=C(C2)Nc2ccccc2NC3c2ccc(OC)c(O)c2)cc1 (configuration not stated),0.24,1.45
COc1ccc(-c2ncc3ccccn23)cc1OC,-0.16,/
CCOC(=O)N1CCN(C(=O)Cn2cnc(S(=O)(=O)N3CCCC3)c2)CC1,/,-0.07
Cc1cc2nc(-c3ccc(NC(=O)c4ccccc4)cc3O)oc2cc1C,-1.95,/
CCC1c2ccc(C)n2CCN1C(=O)Nc1cc(OC)ccc1OC (configuration not stated),-1.82,-7.73
Cc1ccc(S(=O)(=O)N[C@H](Cc2ccccc2)C(=O)CCl)cc1,/,0.02
O=C(Cn1cnc2c(nc3n2CCCCC3)c1=O)N1CCN(C2CCCCC2)CC1,/,0.56
